T cruzi inh – T. cruzi replication inhibition. T. cruzi beta-gal in NIH3T3, luminescence, 90 h. inhibition, % (test concentration not listed). hit rate 1.4% among 300,000;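 active = mean inhibition across valid replicates above about 55%, limit read from the data; inconclusive = mean below that limit but half or more replicates reach it; inactive = mean below it, under half of replicates reach it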;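 note: signal also drops with host cell toxicity which is not excluded here; 0% = plate median of DMSO wells and 100% = zero luminescence signal; higher percent means less beta-gal luminescence so fewer parasites; stock transfer was 50 nL into about 50 µL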
Ecoli rRNA inh – selective bacterial rRNA inhibition in E. coli. E. coli WT GFP vs humanized-ribosome RFP mutants, fluorescence, 24 h; active compounds read low; DMSO median 0, no signal -100. GFP signal change (wild-type ribosome), % (no concentration beside the values). hit rate 1.6% among 350,000;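 active = significant combined selectivity score with lowered wild-type GFP, culture density cut under 30%, mutant RFP and density less affected; inactive = any of these conditions unmet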; note: one replicate is shown; some compounds called inactive have numbers as strong as hits
FGF22 binding – binders of recombinant human FGF22 by thermal shift; SYPRO orange fluorescence; percent of sucrose octasulfate shift, DMSO zero; hit rate 1.5% among 340,000; AID 651658; calls only at 9.99 µM;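 active = melting point raised past a set limit in the mean and every replicate; inconclusive = no clear call; three in four hits are not shown here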
Target sequence (Q9HCT0 whole entry, looked up): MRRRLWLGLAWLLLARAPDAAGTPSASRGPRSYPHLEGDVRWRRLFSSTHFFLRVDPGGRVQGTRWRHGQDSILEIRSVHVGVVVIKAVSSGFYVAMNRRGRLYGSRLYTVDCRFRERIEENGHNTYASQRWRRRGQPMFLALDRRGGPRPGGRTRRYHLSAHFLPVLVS
Beta cell apopt – blocks beta cell apoptosis; INS-1E cytokine-induced death, ATP luminescence, 48 h; percent of positive-control rescue, neutral wells zero; protection from apoptosis, % (test concentration not listed); hit rate 0.8% among 300,000; AID 435005;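 active = all replicates at 75% or more, or half of them and the mean; inconclusive = half reach 75% but not the mean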;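 note: 0% = cytokine-treated negative control wells and 100% = positive control rescue; higher means more ATP so stronger rescue from cytokine killing; wells of about 40 µL received 100 nL stock; the first replicate is given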
Calb FLC – affects C. albicans growth with fluconazole. AID 1979. growth inhibition, % (concentration not given with the values). hit rate 0.57% among 300,000. C. albicans CaCi-2 (fluconazole-resistant clinical isolate) + fluconazole, Alamar Blue growth, 48 h;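 active = most replicates above 75%; inconclusive = exactly half above 75%; inactive = most below 75%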;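 note: all wells also contain fluconazole at 8 µg/ml as a sub-toxic cotreatment; 0% = median of DMSO wells and 100% = median of geldanamycin control wells; wells of about 8 µL received 7.5 nL stock; the first replicate is given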
AF4-AF9 inh – blocks AF4 peptide binding to human AF9. AlphaScreen, biotin-AF4 peptide binding to FLAG-AF9. hit rate 0.47% among 350,000. inhibition, % at 10 µM;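 active = every replicate reaching a set inhibition limit, whatever the replicate mean, cut at about 25% in these data; inconclusive = mean inhibition reaches that limit but some replicates miss it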;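 note: 0% = plate neutral control median and 100% = total signal loss; the record names both 10 and 1 µM as test concentration; the first replicate is given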
Target sequence (P42568 whole entry, looked up): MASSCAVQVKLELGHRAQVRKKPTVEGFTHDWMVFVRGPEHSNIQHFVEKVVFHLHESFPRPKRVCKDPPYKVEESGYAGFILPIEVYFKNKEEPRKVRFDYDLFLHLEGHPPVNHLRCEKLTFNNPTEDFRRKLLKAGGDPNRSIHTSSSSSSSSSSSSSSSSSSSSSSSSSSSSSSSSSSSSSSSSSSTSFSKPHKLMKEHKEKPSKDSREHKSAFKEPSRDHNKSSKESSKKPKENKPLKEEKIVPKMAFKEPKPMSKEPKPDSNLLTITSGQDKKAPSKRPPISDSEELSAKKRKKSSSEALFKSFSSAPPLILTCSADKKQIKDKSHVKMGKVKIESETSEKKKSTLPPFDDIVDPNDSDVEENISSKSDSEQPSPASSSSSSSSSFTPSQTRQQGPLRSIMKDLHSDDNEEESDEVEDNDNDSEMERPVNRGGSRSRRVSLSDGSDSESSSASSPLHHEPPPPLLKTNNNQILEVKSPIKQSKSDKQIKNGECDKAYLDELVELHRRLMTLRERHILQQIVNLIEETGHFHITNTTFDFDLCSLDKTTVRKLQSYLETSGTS
ALR H2O2 inh – inhibitors of human sulfhydryl oxidase ALR. purified ALR, DTT oxidation, H2O2 HRP-luminol luminescence. inhibition, % (test concentration not listed). hit rate 3.8% among 290,000. AID 485317;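 active = mean and each replicate at 75% or more; inconclusive = only one of the two met; inactive = neither met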;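 note: stock transfer was 7.5 nL into about 7.5 µL; 0% = neutral wells and 100% = wells with inactivated enzyme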
Target sequence (P55789 whole entry, looked up): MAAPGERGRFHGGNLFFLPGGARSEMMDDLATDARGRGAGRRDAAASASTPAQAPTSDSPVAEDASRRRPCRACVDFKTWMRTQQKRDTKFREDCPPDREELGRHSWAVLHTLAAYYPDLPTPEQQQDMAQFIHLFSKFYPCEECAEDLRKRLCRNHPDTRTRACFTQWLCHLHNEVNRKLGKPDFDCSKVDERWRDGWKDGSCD
RanGTP-Imp inh – inhibitors of RanGTP-importin-beta interaction, primary screen, biochemical, FRET, CFP-Ran, YFP-importin-beta, homogeneous; cell-free CFP-Ran/YFP-importin-beta FRET ratio; inhibition, % (no concentration beside the values); hit rate 1.1% among 300,000;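 active = most replicates above 15%; inconclusive = exactly half above 15%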;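 note: 0% = DMSO wells and 100% = Ran loaded with GDP instead of GTP; wells of about 40 µL received 100 nL stock; the first replicate is given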
Ecoli rRNA inh OD600 – further read-out of Ecoli rRNA inh, marked with its call; OD600 change, %; measured here: OD600 growth;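 optical density of the mix in the first replicate; 0 = DMSO median and -100 = no signal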
Ecoli rRNA inh RFP – further read-out of Ecoli rRNA inh, marked with its call; RFP signal change, %; measured here: RFP humanized mutant strains;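 first replicate; 0 = DMSO median and -100 = no signal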
* = called active by the depositor; i = inactive; ? = inconclusive; . = no result given; & = joins results of further samples; ! = repeats disagree. This is a subset; count on the stated rates, not on these rows.

no.	mol	T cruzi inh	Calb FLC	AF4-AF9 inh	ALR H2O2 inh	Beta cell apopt	Ecoli rRNA inh OD600	RanGTP-Imp inh	Ecoli rRNA inh RFP	Ecoli rRNA inh	FGF22 binding
1	CCCCCc1nc(N)c(C#N)c(-c2ccco2)c1CCCC	5	-4	.	.	-1	.	1.6	.	.	.
2	COC(=O)[C@]1(Cc2ccccc2)N[C@H](CN(C)S(=O)(=O)c2ccc(F)cc2)[C@@H]2C(=O)N(C)C(=O)[C@@H]21	.	.	-1.1	1	0	1	.	1.2	1	i
3	COc1ccc(-c2cc(C(=O)NCC(c3ccco3)N(C)C)c3ccccc3n2)cc1OC (stereo not given)	-1	1	0.5	-5	5	-5	1.0	1.3	-10	i
4	COc1ccc(Cl)cc1C(=O)NNC(=O)CNC(=O)c1ccc(C)s1	.	.	-1.1	0	-20	0	.	3.3	1	i
5	COc1ccc(CCN(Cc2cc3cccc(C)c3[nH]c2=O)C(=O)N2CCCC2)cc1OC	20	5	.	.	-4	.	2.4	.	.	.
6	CCn1nc(C)c(CNC(=O)c2cc(COc3cncc(Cl)c3)on2)c1C	1	21	-0.9	-1	-6	3	-2.6	-1.5	-1	i
7	COC(=O)Cn1cnc2sc(C)c(S(=O)(=O)N3CCN(c4ccccc4OC)CC3)c2c1=O	-10	-1	.	32	-8	.	-1.9	.	.	.
8	Cc1ccc(-c2csc(NC(=O)c3ccc(F)cc3)c2C(=O)O)cc1	-6	-15	1.0	11	6	-68	?	-22	-46	i
9	CCc1ccccc1NC(=O)CN(C)C(=O)COc1ccc(C)nc1[N+](=O)[O-]	0	3	.	-9	-1	.	-4.4	.	.	.
10	Cc1cccc(NC(=O)CN(C2=NC3CS(=O)(=O)CC3S2)c2ccccc2F)c1 (stereo not given)	-17	-2	11	99*	-10	3	?	-0.2	-9	i
11	O=C(c1cnn2ccccc12)N1CCc2ccccc21	-6	1	-0.8	-6	-7	-9	-0.2	-0.6	-2	i
12	O=C(CCNC(=O)c1ccc([N+](=O)[O-])cc1)NCCCN1CCCC1=O	-8	1	-0.7	-1	-5	12	3.1	-3.5	7	i
13	COc1ccc(NC(=O)CCNS(=O)(=O)c2cccc3nonc23)c(OC)c1	-1	-3	1.4	.	3	-23	2.4	-2.7	-14	i
14	O=C(NCCN1CCN(c2cccc(Cl)c2)CC1)c1ccc(CSc2nc3ccncc3[nH]2)cc1	39	-4	.	2	9	.	0.5	.	.	.
15	O=C(O)c1cccc2c1C(=O)N(C1CCCCC1)C2	-12	-1	9.7	-13	-2	6	-1.1	-0.2	4	i
16	CCCN1CCN(CCCNC(=O)c2ccc3c(Cl)c4c(nc3c2)CCCC4)CC1	18	5	6.9	44	12	-5	-0.1	11	1	i
17	CC(C)(C)C1CCc2onc(C(=O)Nc3ccc(F)cc3F)c2C1 (stereo not given)	13	8	.	-2	4	.	-1.1	.	.	.
18	CC(C(=O)NCc1cccc(Cl)c1)N1C(=O)c2ccccc2C1=O (stereo not given)	-15	-4	-1.6	1	-1	-10	-2.3	-1.3	-2	i
19	COC(=O)CN(c1ccc(C)c(Cl)c1)S(C)(=O)=O	-8	11	.	.	-10	.	3.3	.	.	.
20	CCCOc1ccc(C(CC(=O)O)NC(=O)C23CC4CC(CC(C4)C2)C3)cc1 (stereo not given)	9	-1	.	7	-4	.	6.9	.	.	.
21	Cc1ccc2c(c1)Sc1ccccc1CC2=O	7	-1	.	-2	9	.	5.2	.	.	.
22	CC(C)(C)c1ccc(C(=O)NNc2cc(Cl)cc(Cl)c2)cc1	19	-21	-0.6	11	2	-2	-2.8	2.0	-2	i
23	COc1cnc(-c2ccccn2)nc1Sc1ccccc1Cl	60*	81*	.	50	86*	.	0.2	.	.	.
24	CC1CCCCN1C(=O)CSc1nnc(-c2ccco2)n1C (stereo not given)	-9	-6	0.6	38	0	8	4.1	-3.4	-1	i
25	CCOC(=O)c1c(NC(=O)C[n+]2ccc(Cc3ccccc3)cc2)sc(C)c1C	59*	-45	17	19	78*	-81	2.7	-22	-61	i
26	O=C(c1ccc2ccccc2c1)c1c[nH]cc1-c1ccccc1	-3	22	.	.	-2	.	2.7	.	.	.
27	CCCN1CCN(C(=O)CCCNC(=O)Cn2cnc3sc(C)c(C)c3c2=O)CC1	-5	2	.	.	-6	.	3.9	.	.	.
28	CC(C)C(=O)Nc1cccc(-c2cn3ccsc3n2)c1	7	-2	.	0	2	.	1.1	.	.	.
29	OC1CCCN(Cc2c3ccccc3cc3ccccc23)C1 (stereo not given)	15	13	.	-2	16	.	-27	.	.	.
30	CC(=O)N1CC=C2C(C#N)=C(N)C(C#N)(C#N)C(C)C2C1 (stereo not given)	8	-9	.	-21	-9	.	-2.2	.	.	.
31	CCOC(=O)C1(Cc2ccc(Cl)cc2)CCN(CCCn2cccn2)CC1	.	-22	3.3	5	2	-10	4.0	-2.4	-8	i
32	CN(C)c1ccc(NC(=O)CN2CCN(CC(=O)Nc3ccc(F)cc3)CC2)cc1	-2	6	.	99*	2	.	-0.4	.	.	.
33	O=C(CSc1n[nH]c(-c2cccnc2)n1)Nc1ccnc2ccccc12	6	-7	.	0	-1	.	?	.	.	.
34	CCOC(=O)CSc1nnc(C2CCCCC2)n1C	0	-4	.	-8	-4	.	8.2	.	.	.
35	Cc1csc(SC(C)C(=O)NCC2CCCCC2)n1 (stereo not given)	-9	1	-1.4	-3	-3	-3	-0.9	-2.7	-1	i
36	O=C1C(Cc2ccccc2)Nc2ncnc(N3CCOCC3)c2N1Cc1ccc(Cl)cc1 (stereo not given)	15	7	2.5&0.5	2	.	-14*!	2.2	0.9*!	-21*!	i
37	O=C(NC1=NCCS1)c1cc(-c2cccc(Br)c2)nc2ccccc12	13	4	.	1	-5	.	-2.6	.	.	.
38	NS(=O)(=O)c1cccc(NC(=O)CSc2nnc3n2CCCCC3)c1	.	.	-0.9	-2	3	20	.	1.9	3	i
39	C=CCc1c(C)nc2cc(-c3ccccc3)[nH]n2c1=O	-5	18	0.2	4	-5	-4	?	-2.2	-6	i
40	CCCCCOc1ccc(NC(=O)c2cc(SC)ccc2Cl)cc1	-10	-4	.	-11	-1	.	1.2	.	.	.
41	CCC(=O)OC1c2ccccc2C(=O)N1Cc1ccccc1 (stereo not given)	-14	3	-3.1	-1	-5	-4	-4.7	-7.6	-3	i
42	COc1ccccc1/C=C/C=N/N1CCN(Cc2cccc3ccccc23)CC1	-1	-7	.	0	0	.	-2.5	.	.	.
43	COc1ccc(S(=O)(=O)N2CCN(c3ccccc3OC)CC2)cc1OC	-1	17	.	47	-8	.	-2.6	.	.	.
44	Cc1ccc(CS(=O)(=O)CCC(=O)N2CCOCC2)cc1	-13	9	-16	6	-7	-10	0.9	-2.5	11	i
45	COc1cccc(NC(=O)c2nn(C)cc2Br)c1	-7	4	.	.	1	.	-1.8	.	.	.
46	COc1ccc(OC)c(C2C(C(C)=O)=C(O)C(=O)N2Cc2cccnc2)c1 (stereo not given)	-11	25	.	-14	-3	.	-8.3	.	.	.
47	C/C=C(/C)C(=O)Nc1cccc(C2=NOC3(C2)C[C@H](C(N)=O)N(C(=O)c2ccc(Cl)cc2)C3)c1 (stereo not given in full)	-8	0	2.4	-3	-8	0	-6.6	7.6	0	i
48	COc1ccc(-c2nnc(SC(C)C(=O)NC3CC3)o2)cc1 (stereo not given)	.	.	-1.8	.	0	8	.	2.4	6	i
49	COC(=O)c1[nH]c2ccc(C)cc2c1NC(=O)CN1CCN(c2ccc(F)cc2)CC1	13	65	.	3	38	-2	-2.6	-2.8	-7	.
50	CCCOC(=O)c1ccc(OC(=O)c2ccco2)cc1	-16	-28	.	5	6	.	4.4	.	.	.
51	CCCC(=O)Nc1ccc(C(=O)NN2C(=O)c3ccccc3C2=O)cc1	-8	10	-0.6	-8	-4	7	-0.7	-1.0	10	i
52	CC(C)(O)C#Cc1ccc(C(=O)N2CCCC(CCC(=O)NCc3ccccc3F)C2)cc1 (stereo not given)	13	-7	-3.9	-46	5	-11	2.9	-2.2	-11	i
53	O=C(c1ccco1)N1CCN(c2ccc(N3CCCCC3)nn2)CC1	-3	3	1.0	4	.	6	0.7	5.1	4	i
54	Nc1nnn(CC(=O)N/N=C/c2ccc(O)cc2)n1	-5	2	-2.2	.	1	12	-0.1	-4.2	13	i
55	Cc1ccc(NC(=O)NCc2cccn2C)cc1C	-5	-9	-1.2	.	.	0	-2.0	4.7	7	i
56	O=C(c1cc2c(s1)CCCC2)N1CCN(CCO)CC1	.	.	-2.6	-4	-4	4	.	1.3	0	i
57	C[C@H](CO)N1C[C@H](C)[C@@H](CN(C)C)Oc2c(NC(=O)c3ccncc3)cccc2C1=O	.	.	-1.4	3	-2	6&14	.	-1.5&1.7	0&2	i
58	O=C(COc1ccc2ccc(=O)oc2c1)Nc1ccc(N2CCCCC2)cc1	.	.	47*	24	3	16	.	0.1	5	i
59	O=C(CSc1nnc(NC(=O)C2CC2)s1)NCc1ccc(F)cc1	-5	-1	-1.3	1	-2	7	2.1	0.7	9	i
60	CC(=O)N1c2ccc(S(=O)(=O)N(C)CC(=O)N3CCCC3)cc2CC1C (stereo not given)	-13	-6	.	-7	-5	.	0.4	.	.	.
61	O=C(CNc1cccc2ccccc12)N/N=C/c1ccc[nH]1	-17	0	12	-5	7	8	-1.7	2.5	3	.
62	CC(C)(C)Nc1nc(SCc2ccccc2)nc(N2CCOCC2)n1	36	-5	.	0	7	.	3.5	.	.	.
63	Cc1ccc(CS(=O)(=O)CCC(=O)NCCN(C)Cc2ccccc2)cc1	11	-4	.	-2	-4	.	0.5	.	.	.

Bioassay records from PubChem BioAssay.
